Sa helicase inh = blocks Staphylococcus aureus DNA helicase. AID 485395. 120,000 compounds, 0.05% hits. purified S. aureus helicase, fluorescence unwinding assay; about half of the hits fall short of the stated cut. inhibition, %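 (tested at about 80 µM)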;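 active = both duplicates at 50% or more, or one of them with a favoured structure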;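 note: 0% = mean of negative control wells and 100% = mean of positive control wells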
MgrA DNA FP = alters Staphylococcus aureus MgrA binding to DNA; fluorescence polarization; inhibition, %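 (about 10 µg/mL by stock and volumes)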; 84,000 compounds, 0.13% hits; AID 602314;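 active = above 50% in either of two replicates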;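 note: 0% = protein plus DNA without compound and 100% = DNA alone without protein; higher means less MgrA bound to DNA so lower polarization; one replicate is shown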
An asterisk follows results filed as active; nt = not tested or not shown; & = joins results of further samples. These rows are one share of the data; rates above refer to the full screens.

The first 5 compounds (preview)
Order of values: Sa helicase inh, MgrA DNA FP
CCc1ccc2nc(Cl)c(CO)cc2c1
  -3, 3.1
CC(C)(C)c1ccc(C(=O)NCCN2CCCC2)cc1
  19, 0.1
O=c1ccc2cc(S(=O)(=O)N3CCOCC3)ccc2o1
  8, nt
CC(=O)SC[C@@H](C)C(=O)N1CCC[C@H]1C(=O)O
  9, -10
CN(C)C1(CNCc2cnn(-c3ccccc3)n2)CCCCC1
  1, nt

All compounds of this part, previewed entries included:
Order of values: Sa helicase inh, MgrA DNA FP
CCc1ccc2nc(Cl)c(CO)cc2c1
  -3, 3.1
CC(C)(C)c1ccc(C(=O)NCCN2CCCC2)cc1
  19, 0.1
O=c1ccc2cc(S(=O)(=O)N3CCOCC3)ccc2o1
  8, nt
CC(=O)SC[C@@H](C)C(=O)N1CCC[C@H]1C(=O)O
  9, -10
CN(C)C1(CNCc2cnn(-c3ccccc3)n2)CCCCC1
  1, nt
CC(=O)n1cc(/C=N/NC(=O)c2sc(C)nc2C)c2ccccc21
  5, nt
CC1CCC(C#N)(N(C)C(=O)COC(=O)c2ccc(CSc3ncn[nH]3)cc2)CC1 (stereo unspecified)
  2, nt
CCC(=O)NC(=S)Nc1ccccc1
  7, 1.5
O=C(COc1ccc(-c2nnco2)cc1)NCCC1=CCCCC1
  8, nt
O=C(OCn1nnc2ccccc2c1=O)C1CCN(C(=O)c2ccc(Cl)cc2)CC1
  9, nt
COc1ccc(C(CC(=O)c2ccco2)C2CCCCC2=O)cc1 (stereo unspecified)
  -4, -1.2
O=C(Cc1ccc(NC2=NC3CS(=O)(=O)CC3S2)cc1)Nc1ccccc1 (stereo unspecified)
  19, -0.2
COC(=O)c1cccc(C(=O)Nc2ccc(C)cc2)n1
  10, nt
Cc1occc1-c1nnc2sc(Cc3cccc4ccccc34)nn12
  16, 20
Cc1occc1-c1nnc2sc(-c3cccs3)nn12
  9, 20
Cn1c(CNC2CCCCC2)nc2ccccc21
  13, nt
O=C(NCc1ccc(Cl)cc1)c1cnn2ccccc12
  16, 4.5
O=c1ncn(Cc2ccccn2)cc1-c1ccccc1
  nt, 2.0
O=C1CSC(=Nc2ccc(O)cc2)N1
  11&17, nt
O=c1c2ccccc2nnn1CSc1ccc(Cl)cc1
  5, nt
COc1cc(C(=O)OCC(=O)/C=C2/N(C)c3ccccc3C2(C)C)ccc1OCC(=O)N1CCOCC1
  -9, nt
COC(=O)c1ccccc1NC(=O)Cn1c(CCC(=O)O)ccc1-c1ccccc1
  9, -0.5
c1ccc2[nH]c(C3CCN(CCN4CCOCC4)CC3)nc2c1
  15, nt
CC1(C)CC(CCC(=O)Nc2ccc(S(N)(=O)=O)cc2)C(=O)O1 (stereo unspecified)
  -31, nt
CC(=O)Nc1ccc(NC(=O)c2ccc(C(F)(F)F)nc2C)cn1
  nt, 1.4
Cc1nnsc1C(=O)NCc1csc(-c2cccs2)n1
  nt, -3.2
COc1ccc(C(CC#N)c2ccccc2)cc1 (stereo unspecified)
  -3, 1.9
O=C(C1CCN(C(=O)N2CCOc3ccccc32)CC1)N1CCOCC1
  8, -0.3
N#CC(=C1SCCS1)S(=O)(=O)Cc1ccco1
  nt, -2.3
Cc1ccc(S(=O)(=O)N(C)C2CCS(=O)(=O)C2)cc1C (stereo unspecified)
  1, nt

As entered above.
Under Sa helicase inh, Cn1c(CNC2CCCCC2)nc2ccccc21 is listed with 13
Under Sa helicase inh, O=C(OCn1nnc2ccccc2c1=O)C1CCN(C(=O)c2ccc(Cl)cc2)CC1 is listed with 9
Under Sa helicase inh, CC1(C)CC(CCC(=O)Nc2ccc(S(N)(=O)=O)cc2)C(=O)O1 (stereo unspecified) is listed with -31

Next section:
Order of values: Sa helicase inh, MgrA DNA FP
O=C1c2cccc3c(Sc4ccccc4)ccc(c23)C(=O)N1CCc1ccccn1
  nt, -0.7
Brc1cnn(Cc2ccccc2)c1
  1, 0.6
CCC(=N\Nc1nc(C)cc(=O)[nH]1)/C(CC)=N/Nc1nc(C)cc(=O)[nH]1
  12, nt
O=C(c1ccccc1)N1CCCCC(Sc2ccccc2)C1=O (stereo unspecified)
  -24, 0.7
Cc1nc2nc(N3C(=O)c4ccccc4C3=O)[nH]n2c(=O)c1Cl
  12, nt
C=C(Br)CSCc1nc2ccccc2[nH]1
  14, nt
COc1cccc(NC(=O)CN(C)CC(=O)Nc2ccc(S(=O)(=O)N(C)C)cc2)c1
  -3, nt
CSCc1nc2sc(C(=O)NC3CC3)c(C)c2c(=O)[nH]1
  4, nt
COCC(C)n1c(=S)[nH]c2ccccc2c1=O (stereo unspecified)
  2, nt
CCOc1cc2[nH]c(=S)n(CC(OCC)OCC)c(=O)c2cc1OCC
  -7, nt
O=C1Nc2ccc([N+](=O)[O-])cc2C1(O)N1CCCCCC1 (stereo unspecified)
  nt, -0.3
Cc1ccccc1NC(=O)N1CC(C)Sc2ccccc21 (stereo unspecified)
  22, nt
CCOc1ccc(-c2nc(NC(C)=O)c3c(=O)oc4c(OC)cccc4c3n2)cc1
  -1, 0.5
O=C(CSCc1ccccc1)NC1CCSC1=O (stereo unspecified)
  13, 1.3
O=C(NCCO)c1ccc2[nH]c3c(c2c1)CCCC3
  2, 1.0
COc1ccc(/C=C/C(=O)OCc2nc3ccsc3c(=O)[nH]2)cc1S(=O)(=O)N1CCOCC1
  14, nt
CC(=O)NCc1c(F)cccc1Cl
  nt, 1.1
O=C(O)CSc1ccc(Br)cc1
  -18, -4.1
NC(N)=NC(=O)c1ccc(N)cc1
  -2, 1.4
Cc1cc2c(NC(=O)c3ccccc3C(=O)O)cccc2nn1
  nt, 7.7
CCOc1cc(N2CCOCC2)c(OCC)cc1NC(=O)c1cccc(-n2cnnn2)c1
  -3, nt
CN(C(=O)CSc1nncc2ccccc12)c1ccccc1
  -9, -1.4
Cc1cc(NC(=O)c2ccc(NC(=O)C(C)C)cc2)no1
  1, -3.3
O=C(CN1C(=O)C2C3C=CC(C3)C2C1=O)N[C@@H](Cc1ccccc1)c1nc2ccccc2[nH]1 (stereo partly specified)
  -9, nt
COC(=O)Cc1c(C)ncnc1OCC(=O)Nc1ccc2c(c1)OCCO2
  -23, nt
CCCCOC(=O)c1ccc(NC(=O)c2cc3cc(Br)ccc3oc2=O)cc1
  nt, 2.2
CC(C(=O)NCCc1c[nH]c2ccccc12)N1Cc2ccccc2C1=O (stereo unspecified)
  -20, nt
CCCn1c(N)c(C(=O)CSc2ncc(C(F)(F)F)cc2Cl)c(=O)[nH]c1=O
  -11, nt
Cc1ccc2nc(N=C(N)N)[nH]c2c1
  7, nt
COc1ccc(-c2c(C#N)c(N)nc3sc(C(=O)Nc4ccc(Br)cc4)c(N)c23)cc1
  nt, 2.7

Additional structures
Order of values: Sa helicase inh, MgrA DNA FP
CC1(C)C(=O)Nc2ccccc2N1C(=O)Cn1ccsc1=N
  6, nt
COc1ccc(C(=O)NC(=O)c2ccccc2O)cc1OC
  nt, -2.8
O=C(NCc1ccco1)c1ccc2snnc2c1
  nt, 0.7
O=C(O)/C=C\C(=O)Nc1ccc2nc[nH]c2c1
  12, 0.8
Fc1ccc(COc2ncnc3cc(Cl)ccc23)cc1
  nt, -0.8
Cc1onc(-c2ccccc2)c1CNC(=O)C1COc2ccccc2O1 (stereo unspecified)
  nt, -2.5
CCN(CC)c1ccc(/C=N/NC(=O)CC(C)C)cc1
  14, 0.5
CCN1C(=O)c2cccc3c(S(=O)(=O)NCCc4ccc(OC)c(OC)c4)ccc1c23
  4, 1.6
COc1ccc(Cn2c(SCC(=O)NCc3ccccc3)nc3c(oc4ccccc43)c2=O)cc1
  -25, nt
CCOC(=O)/C(C#N)=C/C=C1\C=Cc2ccccc2N1CC
  -31, nt
Cn1c(=O)c2c(ncn2CCC(=O)N2CCN(c3cccc(C(F)(F)F)c3)CC2)n(C)c1=O
  -8, -3.3
CCc1cc2c(=O)n(Cc3ccco3)c(SCC(=O)NCC3CCCO3)nc2s1 (stereo unspecified)
  1, 1.2
CC(C)NC[C@@H](O)COc1ccc(CC(N)=O)cc1
  nt, 1.5
CC(C)Oc1ccc(C(=O)N=c2sc3cc(Cl)ccc3n2C)cc1
  13, nt
CCC1CCCCN1C(=O)CCS(=O)(=O)c1ccccc1 (stereo unspecified)
  1, 1.3
O=C(Nc1nc2ccccc2[nH]1)c1ccc2c(=O)n3c(nc2c1)CCCCC3
  -15, nt
CC(=O)NC(Cc1ccccc1)C(=O)OCN1C(=O)c2ccccc2C1=O (stereo unspecified)
  1, -0.2
CC(c1ccccc1)n1c(COc2ccccc2)nc2ccccc21 (stereo unspecified)
  4, 0.3
O=S(=O)(NCCSc1ccccc1)c1ccc(Cl)cc1
  0, -2.0
Cc1nc(-c2coc3c(I)c(O)ccc3c2=O)cs1
  12, nt
COCCn1cnc2c1c(=O)n(Cc1ccc(C(=O)OC)cc1)c(=O)n2Cc1ccccc1
  13, nt
c1ccc2c(c1)ncn2CN1CCOCC1
  nt, -1.6
Cc1ccc(S(=O)(=O)Nc2ccc3oc(=O)sc3c2)cc1
  -9, 4.3
NS(=O)(=O)c1ccc(N=CC2=C(O)c3ccccc3C2=O)cc1
  11, -0.9
CC(C)(C)N=C(NS(=O)(=O)c1ccc(Br)cc1)c1ccccc1
  8, 1.4
CCOc1ccc(CNC(=O)CCSCc2ccccc2Cl)cc1OC
  7, nt
COc1cc2c(cc1OC)C(C)N(C(=O)c1ccc(N)cc1)CC2 (stereo unspecified)
  5, -0.6
Cc1cccc(C(=O)NCC(=O)OCc2nc(N)nc(Nc3ccccc3C)n2)c1
  31, nt
CCNC(=O)CCSc1nc2cc(Cl)ccc2o1
  8, -2.8
CC12CCC(=O)N1CCCCN2 (stereo unspecified)
  6, 4.5

Next section, starting with the last five of the part before.
Order of values: Sa helicase inh, MgrA DNA FP
CCOc1ccc(CNC(=O)CCSCc2ccccc2Cl)cc1OC
  7, nt
COc1cc2c(cc1OC)C(C)N(C(=O)c1ccc(N)cc1)CC2 (stereo unspecified)
  5, -0.6
Cc1cccc(C(=O)NCC(=O)OCc2nc(N)nc(Nc3ccccc3C)n2)c1
  31, nt
CCNC(=O)CCSc1nc2cc(Cl)ccc2o1
  8, -2.8
CC12CCC(=O)N1CCCCN2 (stereo unspecified)
  6, 4.5
C=CCn1c(NCc2ccccc2)nc2ccccc21
  3, 2.0
Fc1ccccc1C1=CN2CCN=C2S1
  10, nt
Cc1ccc(Cc2cnc(CN3CCCCC3)c(O)c2)cc1
  8, nt
CC(C)(C)C(=O)OCc1noc(-c2ccccc2)n1
  nt, -2.7
CC(C)CC(C(=O)N1CCCc2ccccc21)N1C(=O)c2ccccc2C1=O (stereo unspecified)
  5, nt
O=C(O)CCSc1ccccc1Cl
  -14, -1.5
Cn1cccc1P(=Nc1ccccc1)(N1CCOCC1)N1CCOCC1
  -5, nt
CCc1ccc(C(=O)CSc2nnc3[nH]c(=O)c(C(C)(C)C)nn23)cc1
  2, nt
N#CCS(=O)(=O)Cc1ccc(C(=O)O)cc1
  10, nt
c1ccc2c(c1)SCc1nnc(-c3ccncc3)n1-2
  8, nt
O=C(COc1ccc(F)cc1)Nc1ccc(-n2cnnn2)cc1
  17, 4.8
CCc1ccc(-n2cnc3cc(C(=O)NCCc4ccccc4)ccc32)cc1
  16, 2.2
COc1cccc(OCC(=N)N)c1
  2, -0.2
Cn1c(CSCc2nc(-c3ccc(Cl)cc3)cs2)n[nH]c1=S
  -9, nt
COc1ccccc1OCCn1c(N)nc2ccccc21
  6, 1.4
CC(=O)Nc1ccc(OCCCl)c(OCCCl)c1
  2, -0.8
O=C1c2ccccc2C2NCCCN12 (stereo unspecified)
  nt, -0.3
O/N=C(\c1ccccc1)c1nccc2ccccc12
  3, nt
CCOC(=O)c1ccc(N=Cc2nc3ccccc3n2C)cc1
  7, 2.4

One compound at a time (already shown). Values in the order: Sa helicase inh | MgrA DNA FP
`COc1cccc(OCC(=N)N)c1` in the list: 2 | -0.2
`CCc1ccc(C(=O)CSc2nnc3[nH]c(=O)c(C(C)(C)C)nn23)cc1` in the list: 2 | nt
`O=C1c2ccccc2C2NCCCN12` (stereo unspecified) in the list: nt | -0.3
`Cn1c(CSCc2nc(-c3ccc(Cl)cc3)cs2)n[nH]c1=S` in the list: -9 | nt
`Fc1ccccc1C1=CN2CCN=C2S1` in the list: 10 | nt

Screening results as filed in PubChem.
